Screening data as filed in PubChem BioAssay.
HIV Env fusion – inhibitors of HIV-1 Env-driven cell-cell fusion, primary screen, HeLa-JRFL effector, CEM21 target cells, luciferase; 360,000 tested, 1.1% active; inhibition, % at 12.3 µM; AID 651610, 2012;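 active = mean replicate inhibition score of at least 50 and every replicate individually at or above 50; inconclusive = only one of the two criteria met; inactive = mean below 50 and not all replicates reaching 50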;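 also: 0% = plate neutral controls and 100% = maraviroc near 300 nM; one replicate is shown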
PABP FP inh – PABP poly(A) RNA binding inhibitors, primary screen, biochemical, fluorescence polarization, uHTS. Polyadenylate-binding protein 1 (Homo sapiens), P11940. inhibition, % at 35 µM. 290,000 tested, 1% active;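 active = 50% or more with normal probe brightness, or confirmed in later tests; inconclusive = above 50% with abnormal brightness, or retests that disagree; inactive = below 50% or failed in later tests; about a fifth of its hits are not listed in these tables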;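 also: calls also rest on retests at 20 µM and on dose response follow-up; controls were probe without protein and protein plus probe with vehicle; some compounds called inactive have numbers as strong as hits; many hits fall short of the cut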
Target sequence (P11940 whole entry, looked up): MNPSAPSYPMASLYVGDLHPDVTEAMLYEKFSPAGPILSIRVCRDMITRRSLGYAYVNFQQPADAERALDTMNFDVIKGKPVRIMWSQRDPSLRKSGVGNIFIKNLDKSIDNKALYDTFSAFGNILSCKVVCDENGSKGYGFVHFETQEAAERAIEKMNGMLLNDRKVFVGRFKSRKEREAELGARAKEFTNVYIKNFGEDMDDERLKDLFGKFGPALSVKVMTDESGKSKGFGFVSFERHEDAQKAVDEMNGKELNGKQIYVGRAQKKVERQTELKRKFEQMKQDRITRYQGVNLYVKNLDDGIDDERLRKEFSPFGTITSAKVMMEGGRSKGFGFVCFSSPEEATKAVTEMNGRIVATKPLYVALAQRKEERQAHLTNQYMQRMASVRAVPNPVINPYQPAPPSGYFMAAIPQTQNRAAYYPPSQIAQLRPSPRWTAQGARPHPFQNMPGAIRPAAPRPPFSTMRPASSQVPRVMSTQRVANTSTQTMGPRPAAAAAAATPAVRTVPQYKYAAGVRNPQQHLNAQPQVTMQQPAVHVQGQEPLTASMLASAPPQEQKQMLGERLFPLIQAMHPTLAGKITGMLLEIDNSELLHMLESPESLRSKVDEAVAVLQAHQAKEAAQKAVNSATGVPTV
eIF4H FP inh – human eIF4H binding inhibitors, primary screen, translation initiation inhibitor project, biochemical, uHTS, fluorescence polarization; eIF4H fluorescence polarization binding assay; inhibition, % at 35 µM; 290,000 tested, 0.94% active;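 active = 50% or more with normal probe brightness, or confirmed in later tests; inconclusive = above 50% with abnormal brightness, or retests that disagree; inactive = below 50% or failed in later tests; about a fifth of its hits are not listed in these tables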;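 also: calls also rest on retests at 20 µM and on dose response follow-up; 0% = protein and probe with vehicle and 100% = probe without protein; strong numbers were not always called active; many hits fall short of the cut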
MT1-MMP act inh – blockers of MT1-MMP proenzyme processing, primary screen, HT1080 RFP-PRO-GFP cells, GFP/RFP fluorescence; Matrix metalloproteinase-14 (Homo sapiens), P50281; GFP/RFP ratio fluorescence, overnight; percent of plate control window, DMSO zero; GFP/RFP ratio change, % at 20 µM; 360,000 tested, 0.061% active;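 active = GFP/RFP ratio change of at least 30% with cell ATP level not reduced by more than half and red fluorescence within 50% of control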; also: strong numbers were not always called active
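Test system: HT1080 cells expressing an RFP-PRO-GFP fluorescent reporter construct / Compound dosing: single-point 20 µM compound, 1% DMSO / Schedule: cells overnight before dosing, compound overnight, 37 °C, 5% CO2 / Evaluation: GFP/RFP fluorescence ratio / Control set: DMSO and RFP-L50D-GFP cell wells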
CSC inhib – cancer stem cell viability inhibitors, primary screen, luminescence; cancer stem cell-like cells viability; 300,000 tested, 1.1% active; inhibition, % at 7.5 µM; AID 2717, 2010;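 active = mean at 75% or more and at least half the replicates too; inconclusive = mean and replicates disagree; tested in HMLE shEcad cells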;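 also: 0% = median of negative and 100% = median of positive control wells; the first replicate is given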
Rce1 inh – yeast Rce1p protease inhibitors, primary screen, biochemical, fluorescence, cell-free homogeneous | AID 2563, 2010 | 290,000 tested, 0.27% active | CAAX prenyl protease 2 (Saccharomyces cerevisiae (strain ATCC 204508 / S288c)), Q03530 | calls only | yeast membranes, quenched prenylated peptide cleavage fluorescence;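 active = fall in fluorescence gain of 50% or more versus controls, with final raw signal at or below 3038400; inconclusive = same 50% fall but final raw signal above 3038400; inactive = fall in fluorescence gain under 50%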;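 also: plate controls were neutral control wells for no effect and wells lacking membranes for full effect; tested at 10 µM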
Target sequence (Q03530 whole entry, looked up): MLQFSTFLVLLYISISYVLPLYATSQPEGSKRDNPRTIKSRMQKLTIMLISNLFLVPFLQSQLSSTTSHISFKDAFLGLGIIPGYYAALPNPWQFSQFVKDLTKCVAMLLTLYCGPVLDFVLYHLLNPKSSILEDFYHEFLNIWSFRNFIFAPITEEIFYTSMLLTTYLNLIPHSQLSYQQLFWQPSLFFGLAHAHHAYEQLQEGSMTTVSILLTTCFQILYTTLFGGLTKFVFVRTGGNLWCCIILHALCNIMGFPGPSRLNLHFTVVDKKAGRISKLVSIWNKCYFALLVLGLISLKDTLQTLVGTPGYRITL
UUG fidelity – modulators of yeast start codon fidelity, primary screen, whole organism, S. cerevisiae, single point, plate reader. S. cerevisiae UUG-firefly luciferase reporter, luminescence/redox ratio. activity score, % at 18.7 µM. 350,000 tested, 0.13% active. AID 602363, 2012;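 active = replicate mean at a twofold rise or more, about +100% in these data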;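 also: firefly luciferase made from a UUG start codon reports start codon fidelity; reporter light over untreated wells divided by growth signal over untreated wells; some hits fall short of that in this replicate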
MT1-MMP act inh RFP – recorded beside MT1-MMP act inh, whose call it bears; RFP signal change, %; measured here: RFP expression control read;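 0 = vehicle wells; hits needed this value within 50% of zero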
Starred values were filed as active, the others as inactive; i = inactive; ? = inconclusive; nt = no result given; & = joins results of further samples; [ ] = dose if it differs, or a comment. Some of the compounds tested; the hit share may differ from the screen's.

Below each compound – HIV Env fusion, PABP FP inh, eIF4H FP inh, MT1-MMP act inh, MT1-MMP act inh RFP, CSC inhib, Rce1 inh, UUG fidelity
- C=CC[n+]1c(-c2ccc(C)cc2)csc1Nc1ccc(NC(C)=O)cc1
  32, -10, -9, 1, -23, nt, nt, nt
- CCn1cc(C(=O)Nn2cnnc2)c(=O)c2ccc(C)nc21
  4, nt, nt, -1, 3, 3, i, -24
- COc1cccc(C(=O)COc2ccc3c(C)c(Cc4ccccc4)c(=O)oc3c2)c1
  nt, 4, -1, -3, 1, 24, i, nt
- Cc1noc(C)c1CSc1nnnn1-c1ccc(Cl)cc1
  nt, 0, -2, -2, -10, -17, i, -6
- NC(=O)N/N=C/c1cc(Br)ccc1OCC(=O)NCc1ccccc1
  -162, 26, -7, -4, -1, -16, i, 17
- CNC(=O)c1[nH]cnc1C(=O)Nc1ccc(Cl)cc1
  3, 8, 3, 5, 1, 4, i, -7
- Cc1ccc(C(=O)Nc2ccccc2C(=O)N2CC(C)OC(C)C2)cc1 (stereo not given)
  -32, nt, nt, 1, 5, nt, nt, -13
- CCn1c(SCC(=O)N2CCCCC2)nc2c(c1=O)SC(C)C2 (stereo not given)
  22, -18, 3, 1, 1, 2, i, -18
- CCOc1ccccc1N1CC(C(=O)Nc2ccccc2N2CCOCC2)CC1=O (stereo not given)
  26, 1, -1, -3, 3, 8, i, 14
- Cn1c(Cc2ccccc2)nnc1SCC(=O)NC1CC1
  -32, 0, -8, -1, 2, -3, i, -11
- COc1c2c(cc3ccc(=O)oc13)CCO2
  -4, -1, 2, -2, 2, -3, i, -2
- Cc1cc(C)nc(SCC(=O)N2CCC(C(N)=O)CC2)n1
  nt, 0, -2, 1, 0, -4, i, -4
- CCC(=O)Oc1ccc(C(=O)Nc2ccc([N+](=O)[O-])cc2)cc1
  4, 6, 6, 2, 1, 2, i, 1
- CCCSc1nc2c(cnn2-c2ccc(F)cc2)c(=O)[nH]1
  -9, -6, -7, 4, 0, -3, i, -15
- c1ccc(N/N=C(\Cc2nc3ccccc3[nH]2)c2ccccc2)cc1
  -27, -3, 10, -6, -5, 39, i, -20
- CC1CC(Nc2ccccc2)c2ccccc2N1C(=O)c1ccco1 (stereo not given)
  -28, -3, -11, 15, 0, 10, i, 9
- O=C(CN1CCOCC1)Nc1cc(Cl)ccc1Cl
  -36, -13, -8, 1, -1, 4, i, 1
- Cc1cccc(-n2c(CNC(=O)c3ccc(S(=O)(=O)N4CCCC4)cc3)n[nH]c2=S)c1
  nt, -4, -14, -1, 0, -3, i, nt
- COc1ccc(-n2ncc3c(NCC4CCCO4)ncnc32)cc1 (stereo not given)
  nt, -14, 0, 4, 6, -11, i, -32
- CC(C)c1ccc(S(=O)(=O)NC2CCS(=O)(=O)C2)cc1 (stereo not given)
  -3, nt, nt, 4, 0, 17, i, -17
- CC(=O)C12CCCCC1CC1[C@@H]3CC(C)C4=CC(=O)CC[C@]4(C)C3CC[C@@]12C (stereo not given in full)
  24, 11, -12, -4, -17, nt, i, -4
- Cc1ccc2[nH]c(C(=O)N3CCOCC3)cc2c1
  -9, 0, -6, 10, 5, -15, i, -7
- CC(C)(C)[C@H]1C=C(C(=O)NC2CC2)O[C@@H](OCc2ccc(CO)cc2)C1
  1[16.7 µM], 4, -5, 3, 5, 5, i, 9&-7
- O=C(Nc1nc(OCC(F)(F)F)cnc1/C=C\c1ccccc1)c1ccsc1
  15, nt, nt, -12, -5, nt, nt, 7
- O=C(Nc1ccccc1)C1Cc2c(-c3ccccc3Oc3ccccc3)ccnc2O1 (stereo not given)
  11, nt, nt, -4, -10, nt, nt, -27
- Cc1ccc(CN2C(=O)CCC2C(=O)NCCCN2CCOCC2)cc1 (stereo not given)
  nt, 1, -8, 1, 4, 11, i, -5
- CCCN1CC=C2C(C#N)=C(N)C(C#N)(C#N)C(c3cc(OC)ccc3OC)C2C1 (stereo not given)
  5, ?, ?, -137, 7, -10, i, -1
- CC(=O)c1ccc(N(CC(=O)NC2CCCC2)C(=O)c2csnn2)cc1
  4, 3, -8, -3, -3, -20, i, -13
- CC(C)N(Cc1nc(-c2ccccc2)no1)S(=O)(=O)c1ccccc1
  19, -2, 0, 2, -7, 20, i, -7
- CCC(C(=O)NNC(=O)c1cnccn1)c1ccccc1 (stereo not given)
  3, -1, -6, 9, 6, nt, i, -1
- O=c1cc(Nc2ccc3c(c2)OCCO3)[nH]c(=O)n1-c1ccc(Cl)cc1
  nt, 4, -7, -8, 0, 2, i, -6
- C=CCc1c(C)nc(C)nc1N/N=C/c1ccc([N+](=O)[O-])cc1
  nt, -3, -10, -3, -2, -6, i, -42
- Nc1sc2c(c1C(=O)NC1CCS(=O)(=O)C1)CCCC2 (stereo not given)
  2, 25, 5, -5, 1, -5, i, -27
- CCCCCN(C(=O)NC(=O)Nc1cccc(C)c1C)S(C)(=O)=O
  15, 10, 8, -2, -1, 1, i, nt
- O=C1Nc2cc(Cl)ccc2Nc2cscc21
  10, nt, nt, -5, -2, -28, i, -10
- CCC(C)N(C(=O)Cn1nnc2ccccc21)C(C(=O)NCc1ccco1)c1cccc(OC)c1 (stereo not given)
  nt, -20, -1, 1, 3, -4, i, -10
- CN1CCc2c(OCC(=O)NC3CCCCC3)cccc2C1=O
  -1, 1, -1, 3, -3, -10, i, -7
- Cc1cc(=O)n2c(nc3ccccc32)s1
  -89, nt, nt, 6, 0, nt, nt, -10
- O=C(CSc1n[nH]c(-c2ccco2)n1)Nc1sc2c(c1C(=O)Nc1ccccc1)CCCC2
  15, -4, 2, -4, -2, nt, i, 2
- Cc1cc(OCc2cc(C(=O)N3CCN(CC4CC4)CC3)no2)cc(C)c1Cl
  2, 0, -6, 0, 2, 31, i, -11
- CCOc1ccc(N2C(=O)Nc3ccc(Br)cc3C2(O)C(=O)NCCN(C)C)cc1 (stereo not given)
  7, -4, 3, 1, 4, -10, i, -1
- CC(=O)Nc1ccc(C(=O)OCC(=O)Nc2ccc([N+](=O)[O-])cc2C(F)(F)F)cc1
  -66, 5, 5, 1, 2, -1, i, -17
- CN(CC(=O)Nc1ncn[nH]1)S(=O)(=O)c1cc(Cl)ccc1Cl
  7, -11, -8, 1, 4, -18, i, -11
- CCN(c1ccc(OC)cc1)S(=O)(=O)c1ccc2c(c1)CC(C)N2C(=O)C1CC1 (stereo not given)
  -5, nt, nt, 0, -2, -12, i, nt
- C/C=C(\C)CN1CCN(c2cccc(C)c2C)CC1
  18, -1, 6, 3, 2, nt, i, -11
- Cn1cc(C(c2ccccn2)c2cn(C)c3ccccc23)c2ccccc21
  nt, 0, -13, -13, -6, -8, i, -21
- O=C(NNC(=S)NC(=O)c1ccccc1)c1cccnc1
  8, -6, 4, 0, 4, 1, i, -16
- Cc1cccc(/C=N/n2c(C)nc3ccccc3c2=O)c1
  -11, -5, 3, 3, 4, -7, i, -11
- Cc1cc(=O)[nH]c(SCC(=O)NC(c2ccccc2)c2ccccc2)n1
  0, 29, 0, 2, 5, -11, nt, -13
- O=C(Nc1cccc2ncccc12)c1ccc(F)cc1
  3, -2, -11, -1, 3, -6, i, nt
- CCOc1ccc(NC(=O)Nc2c(C)n(C)n(-c3ccccc3)c2=O)cc1
  -1, -5, -5, 0, 3, -15, i, -14
- CCNc1nc(NCC)nc(C(=O)Nc2ccccc2)n1
  nt, -5, -6, 4, 2, -17, i, -29
- CN(CC(=O)Nc1ccc(N2CCOCC2)cc1)C(=O)C1CCCC1
  7, -11, -5, 5, 0, -4, i, -8
- Cc1noc(C)c1COc1cccc(C(=O)NC(C)(C)C)c1
  -1, 7, -9, -9, 1, 15, i, nt
- Nc1cccc(Nc2ccccc2)c1
  -4, 0, -3, 1, -1, 0, i, nt
- CCC(CO)Oc1cc(NC(=O)c2cccc3ccccc23)c2ncn(C(C)C)c2c1 (stereo not given)
  14, nt, nt, 8, 4, 5, nt, 5
- O=C1NCCN(CC2CCN(CCc3ccc(Cl)c(Cl)c3)CC2)C1=O
  -53, nt, nt, 3, 6, nt, nt, -9
- O=C(OCCN1C(=O)c2ccccc2C1=O)c1cc2ccccc2o1
  nt, 8, -16, -2, -2, -3, i, -10
- Cc1cccc(NC(=O)/C(C#N)=C/c2ccc(Cl)cc2)n1
  -9, 5, -8, -1, 1, -9, i, -17
- N#CCc1nc(CSc2nc3ccccc3s2)cs1
  -23, 0, -8, -5, 2, -8, i, -40

Continuation.
Below each compound – HIV Env fusion, PABP FP inh, eIF4H FP inh, MT1-MMP act inh, MT1-MMP act inh RFP, CSC inhib, Rce1 inh, UUG fidelity
- CCOC(=O)CSc1nnc(NC(=O)c2cccc(S(=O)(=O)N3CCCCC3)c2)s1
  -20, 1, -6, -1, 2, -4, i, -13
- CCCCCNC(=O)Cc1cc(=O)[nH]c(=O)[nH]1
  5, -4, 10, 1, 5, -9, i, -13
- CC1(C)c2[nH]c3ccccc3c2C[C@H]2C(=O)N(Cc3cccc(F)c3)C(=O)N21
  30, nt, nt, -1, -9, 7, i, 1
- CCCCCCNC(=O)Cc1ccc(Br)cc1
  -16, -1, -5, 1, 2, -28, i, -6
- COc1ccc(/C=N/NS(=O)(=O)c2ccc(F)cc2)cc1COc1cc(F)ccc1[N+](=O)[O-]
  14, -8, 0, -3, -14, 4, i, nt
- Cc1ccc2cc(C3CC(c4ccco4)=NN3S(=O)(=O)c3ccccc3)c(Cl)nc2c1 (stereo not given)
  32, 0, 6, -3, 1, 17, i, -28
- Cc1cc(OCc2cc(C(=O)NC(C)c3cnn(C)c3)no2)cc(C)c1Cl (stereo not given)
  -72, nt, nt, -4, -6, nt, nt, -11
- CCOC(=O)N1CCN(C(=O)Cc2ccc(C)cc2)CC1
  nt, -2, 4, 8, 1, -1, i, 7
- CC1(C)C(=O)NCCN1C(=O)CSc1nccc(-c2ccc(Br)cc2)n1
  nt, 2, 0, 6, -2, -3, i, -9
- O=C(CCc1nc2ccccc2c(=O)[nH]1)OCC(=O)c1cccc(Cl)c1
  -13, 5, -2, -1, 1, -10, i, nt
